Autofluor counter = compound fluorescence in toxin protease inhibitor counterscreen. 360,000 compounds, 3.1% hits. fluorescence intensity (test concentration not listed). compound autofluorescence counterscreen, microsphere flow cytometry; stronger effect = higher value;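 active means at least 3 SD above the mean of all compounds, about 16000 in these data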;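 further: 100 nL of 1 mM stock went into each well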
PrP 5UTR inh = inhibition of PrP 5' UTR reporter expression | cell-based PrP 5' UTR mRNA reporter, plate reader | inhibition, % (concentration not given with the values) | 340,000 compounds, 0.35% hits | AID 488862;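 active means every replicate at 50% or more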;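 further: 0 = median of the neutral control wells; tested in H4 reporter cells; numbers are from one replicate; inactives centre near -14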
Sa RN4220 lethal = kills Staphylococcus aureus RN4220. S. aureus RN4220 growth, OD600, 16 h. inhibition, % (concentration not given with the values). 330,000 compounds, 0.33% hits. AID 1259311;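 active means z-score of -3 or lower and OD600 up to 0.18 on both plates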;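 further: plate controls were untreated cells for no effect and reference antibiotic for full effect; stock transfer was 100 nL into about 80 µL; one replicate is shown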
BJeLR lethal = BJeLR cell viability loss | inhibition, % (concentration not given with the values) | BJeLR (HRASV12) viability, CellTiter-Glo ATP luminescence, 48 h; reference of the scale not given here | 300,000 compounds, 0.17% hits | AID 1554;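 active means replicate mean above 50%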;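 further: 50 nL library stock added to about 25 µL; numbers are from one replicate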
Sa ugtP lethal = kills S. aureus RN4220 lacking UgtP; S. aureus RN4220 ugtP deletion, OD600 growth, 16 h; some inactives read as strong as hits; growth inhibition, % (no concentration beside the values); 330,000 compounds, 0.54% hits;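 active means z-score under -3 and OD600 up to 0.15 on both plates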;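 further: plate controls were untreated wells for no effect and antibiotic for full effect; wells of about 80 µL received 100 nL stock; the first replicate is given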
Mtb hypoxia rep = reduces hypoxia-regulated biosensor signal in M. tuberculosis. M. tuberculosis hypoxia-regulated fluorescent reporter, fluorescence. fluorescence inhibition, % (concentration not given with the values). 300,000 compounds, 0.1% hits. AID 1159583;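 active means 35 to 45% if threefold the growth effect, above 45% if 1.5-fold the growth effect; inactive means the rest, general growth blockers included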;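 further: wells of about 50 µL received 100 nL stock; 0% = vehicle wells and 100% = reference inhibitor wells; whole bacteria with a GFP reporter of the hypoxia response; strong numbers were not always called active; many hits fall short of the cut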
Mtb hypoxia rep growth = further read-out of Mtb hypoxia rep, marked with its call; growth inhibition, %; measured here: M. tuberculosis growth (absorbance);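 0% = vehicle and 100% = reference antibiotic; read after six days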
* marks the source's active call; other numbers are inactive results; x = no result given.

structure	Autofluor counter	PrP 5UTR inh	Sa RN4220 lethal	BJeLR lethal	Sa ugtP lethal	Mtb hypoxia rep	Mtb hypoxia rep growth
Cc1ccc(C(=O)OCC(=O)N2CCC(Cc3ccccc3)CC2)cc1N	3311	-7	7.5	3	7	9	-6
COC(=O)[C@]1(C)N[C@H](CN(C)C(=O)c2ccc(F)cc2)[C@@H]2C(=O)N(Cc3ccccc3)C(=O)[C@@H]21	3643	-27	1.2	x	1	-9	-1
COc1ccc(OCC(=O)Nc2ccc3c(c2)nc(CCn2ccccc2=O)n3C)cc1	5440	-12	-0.3	-3	-1	-1	-3
CCc1nnc(NC(=O)CSCc2cc(=O)n3nc(C)sc3n2)s1	6303	-25	2.2	0	9	-1	-3
Cc1ccccc1OCC(=O)N/N=C/c1cn(Cc2ccccc2)c2ccccc12	2729	9	x	-7	x	x	x
Cc1cc(C)cc(C(=O)NC(CC(N)=O)c2ccc(NC3CCCCCCC3)c([N+](=O)[O-])c2)c1 (configuration not stated)	4175	-9	-3.8	-5	-33	12	8
CCO/C=C1\C(=O)N(CC)c2ccccc21	3779	-23	2.5	0	2	4	9
Cn1c2c(c(=O)[nH]c1=O)C(NC(=O)c1ccco1)(C(F)(F)F)C(=O)N2 (configuration not stated)	4675	0	-0.7	x	4	x	x
CCc1ccccc1OCC(=O)Nc1ccc2c(c1)OCCO2	3680	-41	15	0	12	-1	8
O=S(=O)(N/N=C/c1ccc(F)cc1)c1ccccc1	3631	0	x	-12	x	x	x
O=C(CSc1nnnn1C1CCCCC1)NCCc1ccccc1	8052	-39	6.9	3	2	5	7
CCC(C)[C@H]1CNC(=O)C(=O)N1CCCc1cc(OC)c(OC)c(OC)c1 (some centres not stated)	3208	-8	x	-1	x	x	x
Cc1ccc(C)c(S(=O)(=O)N2CCN(c3nc(CN4CCOCC4)nc4sc(C)c(C)c34)CC2)c1	3998	-5	-1.4	x	-6	-8	2
CC(=O)n1nc(-c2ccco2)nc1SCc1ccccc1	4229	-28	0.6	-8	8	x	x
CCN(CC)S(=O)(=O)c1cccc(-c2nnc(SCC(=O)NCCC3=CCCCC3)n2N)c1	5003	-20	1.2	-1	11	x	x

Another view of 3 compounds above:
COc1ccc(OCC(=O)Nc2ccc3c(c2)nc(CCn2ccccc2=O)n3C)cc1
  Autofluor counter = 5440	PrP 5UTR inh = -12	Sa RN4220 lethal = -0.3	BJeLR lethal = -3	Sa ugtP lethal = -1	Mtb hypoxia rep = -1	Mtb hypoxia rep growth = -3
CCc1nnc(NC(=O)CSCc2cc(=O)n3nc(C)sc3n2)s1
  Autofluor counter = 6303	PrP 5UTR inh = -25	Sa RN4220 lethal = 2.2	BJeLR lethal = 0	Sa ugtP lethal = 9	Mtb hypoxia rep = -1	Mtb hypoxia rep growth = -3
Cc1ccccc1OCC(=O)N/N=C/c1cn(Cc2ccccc2)c2ccccc12
  Autofluor counter = 2729	PrP 5UTR inh = 9	Sa RN4220 lethal = x	BJeLR lethal = -7	Sa ugtP lethal = x	Mtb hypoxia rep = x	Mtb hypoxia rep growth = x

The list continues:
structure	Autofluor counter	PrP 5UTR inh	Sa RN4220 lethal	BJeLR lethal	Sa ugtP lethal	Mtb hypoxia rep	Mtb hypoxia rep growth
CCOc1ccc2nc(SCC(=O)NC3CCCCC3)[nH]c2c1	4972	-11	4.7	-5	-4	12	13
CCOC(=O)CSc1nnc(C)c(=O)[nH]1	2981	-18	1.4	9	5	4	6
CCN(CCn1cccn1)C(=O)c1cc(COc2ccccc2SC)on1	6614	-63	6.5	7	-4	12	0
CC(Sc1nccn1C)C(=O)c1c(N)n(C)c(=O)n(C)c1=O (configuration not stated)	5035	-11	2.0	14	0	11	4
O=C(COC(=O)CNC(=O)c1cccc([N+](=O)[O-])c1)Nc1cccc(S(=O)(=O)N2CCCC2)c1	2386	-9	2.7	-3	4	6	6
OC1CCCC1	5966	-4	4.7	x	8	7	13
O=C(CN1C(=O)COc2ccccc21)Nc1ccc(F)cc1	5194	-41	2.0	1	4	9	-1
COC(=O)c1cccc(NC(=O)/C=C/c2cccc([N+](=O)[O-])c2)c1	14115	-10	4.6	-17	-4	-1	1
CC1CCCC(C)N1C(=O)CSc1nc2ccccc2c(=O)[nH]1 (configuration not stated)	4293	-16	-1.3	0	-2	3	-1
CCOc1cccc(CN2CCC(n3nccc3NC(=O)CCCc3ccccc3)CC2)c1	5839	-27	3.4	7	4	14	14
C=Cc1ccc(C(=O)NC2CCCN(Cc3ccccc3F)C2)cc1 (configuration not stated)	5661	-11	2.3	-5	9	18	2
Cc1ccc(NC(=O)c2cccs2)cc1S(=O)(=O)Nc1cccc(Cl)c1	1952	5	26	6	-3	16	1
COc1ccc(NC(=O)NNC(=O)COc2ccc3cc(Br)ccc3c2)cc1OC	5653	-24	6.3	-1	-3	4	-5
COc1ccc(-c2cc(C(=O)c3c(N)n(C)c(=O)n(C)c3=O)c3ccccc3n2)cc1OC	3266	-32	3.4	5	0	5	8
CN(CC(=O)Nc1ccccc1C(F)(F)F)CC(=O)N1CCCCCC1	4201	-15	7.9	x	7	-4	-4
O=C1NC(=O)N(c2ccccc2)C(=O)/C1=C/c1ccc([N+](=O)[O-])s1	2590	-22	7.6	-5	2	2	-1
Nc1cc(Cl)ccc1N1C(=O)CCC1=O	2724	-12	x	1	x	x	x
COn1c2c(c3c4nonc4ccc31)CCCC2	4713	-31	1.0	-4	-21	-2	18
Cc1nc2ccccn2c1C(=O)/C=C/c1cccc([N+](=O)[O-])c1	2061	-22	1.9	-31	2	-2	20
O=c1[nH]c(=O)n(CCc2ccccc2)c(O)c1C=NCCCn1ccnc1	2856	-22	2.3	11	-3	9	7
COc1ccccc1CN1CC(C(=O)NCc2cc(F)ccc2C)CCC1=O (configuration not stated)	5544	-51	4.1	2	8	16	3
CCOC(=O)C1CCN(S(=O)(=O)CCNC(=O)c2ccc(F)cc2)CC1	5242	-15	2.5	-7	5	7	-4
Cc1cc(=O)[nH]c(N/N=C/c2ccc(N(C)C)cc2)n1	4771	-13	x	-4	x	x	x
CCOc1cc(NC(=O)c2ccccn2)c(OCC)cc1NC(=O)c1ccc(C)cc1	2480	-5	10	-6	1	-15	5
O=C(Nc1ccccc1-c1ccccc1)c1ccc(Cl)c([N+](=O)[O-])c1	2522	2	6.7	-6	-1	7	15
O=C1C2CC=CCC2C(=O)N1Cc1ccccc1 (configuration not stated)	6784	-2	1.7	-4	2	6	-2
Cn1c(=O)c2c(ncn2CC(=O)N2CCN(S(=O)(=O)c3ccc(F)cc3)CC2)n(C)c1=O	5403	x	2.4	x	4	5	10
COc1ccc(-c2nnc3ccc(SCC(=O)N4CCCC4)nn23)cc1	4279	-11	0.3	-6	5	-4	7
Cc1ccc(CNC(=O)CCNS(=O)(=O)c2cccc3nonc23)cc1	9923	7	5.1	-7	-1	9	6
O=C(O)C1C2C=CC(O2)C1C(=O)NCc1ccc(Cl)cc1 (configuration not stated)	9932	-4	-0.3	-11	-4	6	6
CCc1nc2ccc(C(=O)NCc3ccco3)cc2nc1CC	2749	-11	4.5	-10	9	x	x
CCOC(=O)c1sc(-c2ccc(C)cc2)c(C#N)c1C	2300	-40	13	2	11	2	6
CC(C)OC(=O)c1ccc2nc3ccccc3nc2c1	3349	-38	0.5	-1	-3	10	3
O=C1C=C(c2cc3ccccc3s2)CC(c2ccc3c(c2)OCO3)C1 (configuration not stated)	x	x	0.6	x	9	8	5
CN(c1cccc(NC(=O)c2ccc(CN3CCc4ccccc4C3)cc2)c1)S(C)(=O)=O	3596	-12	2.9	15	10	10	7
CC1C/C(=N\NC(=O)c2ccc(NS(=O)(=O)c3ccc(Br)cc3)cc2)CC(C)(C)C1 (configuration not stated)	9381	-36	x	-5	x	x	x
O=c1nc(N/N=C/c2ccccn2)cn[nH]1	2345	-9	x	-6	x	x	x
COc1ccccc1C(=O)NCCC(=O)NC1CCCCCC1	x	x	5.7	x	4	8	1
COc1ccc(/C=N\n2nnc3ccccc32)cc1	4534	38	x	0	x	x	x
CC(C)=CC(=O)OCC(=O)Nc1ccc(SC(F)F)cc1	4671	-31	2.6	-3	2	10	13
Cc1cccc(CS(=O)(=O)Cc2ccc(C(=O)NCc3ccco3)o2)c1	2777	10	2.7	12	7	1	2
Cc1ccc(SCc2cc(=O)[nH]c(Nc3nc(C)c4cccc(C)c4n3)n2)cc1	22617*	-16	0.1	-6	-9	-6	-6
O=C(CCN1CCCCC1)Nc1ccc(Br)cc1C(=O)c1ccccc1	5122	-20	2.7	-1	5	-4	-9
Oc1ccccc1C=Nn1c(COc2ccccc2)n[nH]c1=S	x	x	8.0	x	1	13	5
C[C@]12CCC(=O)C=C1C=CC1C2CC[C@@]2(C)C1CC[C@@]2(O)CCC(=O)O (some centres not stated)	x	x	5.1	x	2	1	-3
Cc1nnc(SCC(=O)Nc2ccc3[nH]c(=O)[nH]c3c2)s1	x	-22	2.8	2	5	-1	0
Oc1ccc(C=NNc2nccnc2Cl)c(O)c1	x	x	13	x	0	16	1
Cc1ccc(CN2C(=O)[C@@H]3Cc4c([nH]c5ccccc45)C(C)(C)N3C2=O)cc1	3025	3	x	1	x	x	x
CCN(CC)C(=O)CSc1nc2[nH]ncc2c(=O)[nH]1	2667	-17	5.3	-7	4	2	-1
c1ccc2c(c1)oc1c(NCC3CCCO3)ncnc12 (configuration not stated)	23180*	-49	0.9	4	-2	6	6
O=C(Nc1nnc(SCC(=O)N2CCCc3ccccc32)s1)c1ccc2ccccc2c1	2375	-39	-1.1	-13	-7	8	0
Cc1cc(C)c(CN2CCCC(CNC(=O)c3ccc(F)cc3)C2)c(-n2cccn2)c1 (configuration not stated)	4252	-17	-2.9	7	8	11	18
CCc1ccc(-c2cc(C)no2)cc1S(=O)(=O)N1CCN(c2ccc(C(C)=O)cc2)CC1	5862	-5	5.8	-2	19	1	-3
O=C(O)CSc1nnc(-c2ccncc2)n1CCc1ccccc1	22072*	-6	5.5	2	6	1	-1
Cc1ccc(C(=O)N2CCN(c3cccc(C)c3C)CC2)cc1S(=O)(=O)N1CCOCC1	3844	-32	-0.6	x	-5	12	8
CCCn1c(SCC(=O)NCc2ccccc2)n[nH]c1=O	4018	-18	3.8	5	0	6	5
COc1cccc(C(=O)C2CCCN(Cc3cnn(C(C)C)c3)C2)c1 (configuration not stated)	2337	-15	0.1	-7	1	6	8
Cc1ccc(-c2noc(CCC(=O)N3CCN(c4cccc(C(F)(F)F)c4)CC3)n2)cc1	2852	-13	7.5	-2	-31	x	x
Cc1ccc(-c2nc(N)n(C(=O)c3cccs3)n2)cc1	3877	-28	5.3	-11	1	5	5
Cc1ccccc1N1CCN(C(=O)c2cccnc2)CC1	4068	-8	2.7	x	-1	7	3
O=C(Cn1c(-c2ccccc2)c[n+]2ccsc12)c1ccccc1	3646	-9	4.2	16	7	-4	7
N#Cc1cccnc1N1CCN(C(=O)c2ccc3c(c2)S(=O)(=O)c2ccccc2C3=O)CC1	3655	0	5.9	4	-9	7	7

High-throughput results from PubChem.
